nsP2pro inh: inhibitors of chikungunya virus nsP2 protease; FRET peptide cleavage, nsP2pro, fluorescence 1 h; Potency, µM (highest dose often 24.9 µM), for inactives: top-dose activity change, negative = inhibition, hits mostly inhibitors; hit rate 1.1% among 31,000; AID 1964107; active means well fitted inhibition curve with a large enough effect; inconclusive means small, poorly fitted or top-dose-only effect; inactive means no such curve, though single readings can be large or run the other way; also: nearly all actives have a fitted effect of over 60% in size; a reference inhibitor and vehicle were the controls
* = called active by the depositor; i = inactive; u = inconclusive; & = joins results of further samples; [ ] = another dose, or the depositor's remark. % is scaled to controls: 0 for no effect and ±100 for the full control effect; potency is read from the fitted curve at half-maximal effect. A portion of the library; rates above refer to the full screens.

Start of the listing, in advance, 3 compounds:
Structure	nsP2pro inh
COC(=O)c1ccccc1O	-8%
COc1cc2c(NC3CCN(CC4CCCCC4)CC3)nc(N3CCCN(C(C)C)CC3)nc2cc1OCCCN1CCCCC1	106%[activator]
Cc1cn2c(n1)Cc1ccc(Cl)cc1C(c1ccc(N)cc1)=N2	76%[activator]

The listing, from the first entry:
Structure	nsP2pro inh
COC(=O)c1ccccc1O	-8%
COc1cc2c(NC3CCN(CC4CCCCC4)CC3)nc(N3CCCN(C(C)C)CC3)nc2cc1OCCCN1CCCCC1	106%[activator]
Cc1cn2c(n1)Cc1ccc(Cl)cc1C(c1ccc(N)cc1)=N2	76%[activator]
CNCc1ccc(-c2[nH]c3cc(F)cc4c3c2CCNC4=O)cc1	-15%&-16%&-8%&7%
CN(C)CC/C=C1/c2ccccc2COc2ccc(CC(=O)O)cc21	4%
CC1(C)CC(=O)c2c(C(F)(F)F)nn(-c3ccc(C(N)=O)c(NC4CCC(O)CC4)c3)c2C1 (centres undefined)	11%&-10%
CC(C)c1nn(-c2c(Cl)cccc2Cl)c2nc(Cc3ccc(OCCO)cc3)[nH]c(=O)c12	13%
COc1ccc(C(=O)c2ccccc2)c(O)c1	10%
CCCC1(c2ccccc2)NC(=O)N(CC(=O)N(C)Cc2c(F)cccc2Cl)C1=O (centres undefined)	1%
CCCC(=O)O[C@]1(C(=O)COC(C)=O)CC[C@H]2C3C[C@H](F)C4=CC(=O)C=C[C@]4(C)[C@@]3(F)[C@@H](O)C[C@@]21C (some centres undefined)	0%
Cc1ccccc1OCC(O)CO (centres undefined)	-5%
O=C(N[C@H](Cc1ccccc1)C(=O)O)c1sc2cc(F)ccc2c1Cl	-9%
O=C(c1ccc(F)c(F)c1Nc1ccc(I)cc1F)N1CC(O)(C2CCCCN2)C1 (centres undefined)	60%[activator]
CCCC(=O)O[C@]1(C(=O)CCl)[C@@H](C)C[C@H]2[C@@H]3CCC4=CC(=O)C=C[C@]4(C)[C@@]3(F)C(=O)C[C@@]21C	-8%
Cc1c(Cl)cccc1NC(=O)Cn1cc(C(=O)C2CCCCC2)c2ccccc21	-14%
O=C(CCc1ccccc1)N1CCC(O)(Cn2cnc3cc(Cl)ccc3c2=O)CC1	-7%

Grouped by structure, those above with nitrogen in an aromatic ring
Structure	nsP2pro inh
COc1cc2c(NC3CCN(CC4CCCCC4)CC3)nc(N3CCCN(C(C)C)CC3)nc2cc1OCCCN1CCCCC1	106%[activator]
Cc1cn2c(n1)Cc1ccc(Cl)cc1C(c1ccc(N)cc1)=N2	76%[activator]
CNCc1ccc(-c2[nH]c3cc(F)cc4c3c2CCNC4=O)cc1	-15%&-16%&-8%&7%
CC1(C)CC(=O)c2c(C(F)(F)F)nn(-c3ccc(C(N)=O)c(NC4CCC(O)CC4)c3)c2C1 (centres undefined)	11%&-10%
CC(C)c1nn(-c2c(Cl)cccc2Cl)c2nc(Cc3ccc(OCCO)cc3)[nH]c(=O)c12	13%
Cc1c(Cl)cccc1NC(=O)Cn1cc(C(=O)C2CCCCC2)c2ccccc21	-14%
O=C(CCc1ccccc1)N1CCC(O)(Cn2cnc3cc(Cl)ccc3c2=O)CC1	-7%

(cont.)
Structure	nsP2pro inh
CCOc1cc(N2CCC(O)CC2)ccc1Nc1ncc2c(n1)N(C1CCCC1)CCC(=O)N2C	-4%
Nc1ncnc2c1c(-c1cccc(OCc3ccccc3)c1)cn2C1CC(CN2CCC2)C1 (centres undefined)	185%[activator]
CNc1ccc([N+](=O)[O-])cc1-n1cnc(-c2ccc(C(F)(F)F)cc2)c1	-3%
C/C=C(/C)C(=O)O[C@H]1C(C)=CC23C(=O)C(C=C(CO)[C@@H](O)[C@]12O)[C@H]1[C@@H](C[C@H]3C)C1(C)C (some centres undefined)	-2%
CCCOc1ccc2nc(NC(=O)OC)[nH]c2c1	7%
COCC(=O)NC/C=C/c1ccc2ncnc(Nc3ccc(Oc4ccc(C)nc4)c(C)c3)c2c1	128%[activator]
O=C(NC1CCN(CCc2c[nH]c3ccccc23)CC1)c1ccccc1	-29%
N=c1nc(N2CCCCC2)cc(N)n1O	-1%

Single values from the list:
CNc1ccc([N+](=O)[O-])cc1-n1cnc(-c2ccc(C(F)(F)F)cc2)c1 in nsP2pro inh: -3%
N=c1nc(N2CCCCC2)cc(N)n1O in nsP2pro inh: -1%
C/C=C(/C)C(=O)O[C@H]1C(C)=CC23C(=O)C(C=C(CO)[C@@H](O)[C@]12O)[C@H]1[C@@H](C[C@H]3C)C1(C)C (some centres undefined) in nsP2pro inh: -2%
COCC(=O)NC/C=C/c1ccc2ncnc(Nc3ccc(Oc4ccc(C)nc4)c(C)c3)c2c1 in nsP2pro inh: 128%[activator]
Nc1ncnc2c1c(-c1cccc(OCc3ccccc3)c1)cn2C1CC(CN2CCC2)C1 (centres undefined) in nsP2pro inh: 185%[activator]

(more compounds)
Structure	nsP2pro inh
c1cn2cc(-c3ccc4cn[nH]c4c3)nc(Nc3ccc(N4CCOCC4)cc3)c2n1	32%
COCCOc1ccc(N2CCN(CCn3ncc4c3nc(N)n3nc(-c5ccco5)nc43)CC2)cc1	-2%
Cc1c(C(=O)Nc2ccc(N3C[C@@H](C)O[C@@H](C)C3)nc2)cccc1-c1ccc(OC(F)(F)F)cc1	u
CCn1c(-c2nonc2N)nc2c(C#CC(C)(C)O)ncc(OCC3CCCNC3)c21 (centres undefined)	42%[activator]
CN(C)c1nc(NC2CCC(NCCc3ccc(Br)cc3OC(F)(F)F)CC2)nc2ccccc12 (centres undefined)	24%
CCCn1c(=O)c2[nH]c(-c3cnn(Cc4cccc(C(F)(F)F)c4)c3)nc2n(CC)c1=O	-6%
COc1cc(-c2cc(-c3ccc(N4CCNCC4)cc3)cnc2C)cc(OC)c1OC	58%[activator]
Cc1cccc(N(C)C(=S)Oc2ccc3c(c2)CCC3)c1	17%
COc1cc2nccc(Oc3ccc(NC(=O)NC4CC4)c(Cl)c3)c2cc1C(N)=O	6%&28%
CCc1cccc(CC)c1NC(=O)CN(CC(=O)O)CC(=O)O	52%[activator]
CC(C)Oc1ccc(-c2nc(-c3cccc4c3CCC4NCCC(=O)O)no2)cc1C#N (centres undefined)	-4%
Cc1nc(C2CCCCC2)c(-c2ccc(S(N)(=O)=O)c(F)c2)o1	-6%
Nc1c2ccccc2nc2ccccc12	u
CCCC(CCC)C(=O)NCc1ccc2c(cnn2-c2ccccc2OC)c1	-2%
On1ncc(C2CCNCC2)c1-c1cccc(-c2ccccc2)c1	-9%
Cc1ncc(-c2ccnc(Nc3ccc(S(C)(=O)=O)cc3)n2)n1C(C)C	9%

An excerpt of these results, with each value named:
SMILES: CCc1cccc(CC)c1NC(=O)CN(CC(=O)O)CC(=O)O
  nsP2pro inh = 52%[activator]
SMILES: CC(C)Oc1ccc(-c2nc(-c3cccc4c3CCC4NCCC(=O)O)no2)cc1C#N (centres undefined)
  nsP2pro inh = -4%

Later entries.
Structure	nsP2pro inh
O=C(c1ccccn1)N(Cc1cccs1)C1(C(=O)NC2CCCCC2)CCCCC1	-3%
C[C@@H]1CC[C@]2(C(=O)O)CC[C@]3(C)C(=CCC4[C@@]5(C)C[C@@H](O)[C@H](O)[C@@](C)(CO)C5CC[C@]43C)C2[C@H]1C (some centres undefined)	1%[10 µM]
CCCCCCCCCCCCCCCC[N+](C)(C)Cc1ccccc1	108%[activator]
CC(C)C[C@@H]1[C@H](c2ccccc2)OC(=O)N1CCCN1CCCCCC1	6%
Cc1cc(C(=O)Nc2cc(Oc3ccc4nc(NC(=O)C5CC5)cn4n3)ccc2C)n(C)n1	86%[activator]
CCN(CCCCOC(=O)c1ccc(OC)c(OC)c1)C(C)Cc1ccc(OC)cc1 (centres undefined)	-4%
Cc1cccc(NC(=O)CN2CCC(c3ccccn3)CC2)c1	-12%
COc1cc2nccc(Oc3ccc(NC(=O)C4(C(=O)Nc5ccc(F)cc5)CC4)cc3)c2cc1OC	12%&72%
CNS(=O)(=O)CCc1ccc2[nH]cc(C3CCN(C)CC3)c2c1	u
CCO[C@@H]1OC(=O)C[C@@H]1NC(=O)[C@@H]1CCCN1C(=O)[C@@H](NC(=O)c1ccc(N)c(Cl)c1)C(C)(C)C	u
COc1ccc(-c2cc(C(F)F)nn2-c2ccc(S(N)(=O)=O)cc2)cc1F	20%
C[C@@H]1COCCN1c1cc(C2(S(C)(=N)=O)CC2)nc(-c2ccnc3[nH]ccc23)n1 (some centres undefined)	i
Cc1nnc(-c2ccc3occ(-c4ccc(S(C)=O)cc4)c3c2)o1 (centres undefined)	-6%
CN(C)c1ccc2nc3ccc(=[N+](C)C)cc-3sc2c1	-32%
CC1=CC[C@]2(C(=O)O[C@@H]3O[C@H](CO[C@@H]4O[C@H](CO)[C@@H](O[C@@H]5O[C@@H](C)[C@H](O)[C@@H](O)[C@H]5O)[C@H](O)[C@H]4O)[C@@H](O)[C@H](O)[C@H]3O)CC[C@]3(C)C(CCC4[C@@]5(C)C[C@@H](O)[C@H](O)[C@@](C)(CO)C5CC[C@]43C)C2C1C (some centres undefined)	-2%[5.1 µM]
Cc1nn(C)c2c1C(c1ccc(C(F)(F)F)cc1)C(C#N)=C(N)O2 (centres undefined)	u
CC1(C)[C@@H](O[C@H]2O[C@H](C(=O)O)[C@@H](O)[C@H](O)[C@H]2O[C@@H]2O[C@H](C(=O)O)[C@@H](O)[C@H](O)[C@H]2O)CC[C@]2(C)[C@H]3C(=O)C=C4[C@@H]5C[C@@](C)(C(=O)O)CC[C@]5(C)CC[C@@]4(C)[C@]3(C)CC[C@@H]12	15%
COc1cc(C=O)ccc1O	u
C[C@@H](Oc1ccc2[nH]nc(/C=C/c3cnn(CCO)c3)c2c1)c1c(Cl)cncc1Cl	62%[activator]
CCOC(=O)CCN(C(=O)c1ccc2c(c1)nc(CNc1ccc(C(=N)N)cc1)n2C)c1ccccn1	21%
FC(F)(F)Oc1ccc(-c2ccc3nnc(C(F)(F)F)n3c2)cc1	-17%
